# MgrA-DNA mod: S. aureus MgrA-DNA binding modulation; fluorescence polarization; inhibition, %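 (about 10 µg/mL by stock and volumes)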; 84,000 tested, 0.13% active; AID 602314;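 active means above 50% in either of two replicates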;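 further: 0% = protein plus DNA without compound and 100% = DNA alone without protein; higher means less MgrA bound to DNA so lower polarization; one replicate is shown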
# S aureus helic: S. aureus DNA helicase inhibition. purified S. aureus helicase, fluorescence unwinding assay; about half of the hits fall short of the stated cut. inhibition, %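 (tested at about 80 µM)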. 120,000 tested, 0.05% active. AID 485395;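 active means both duplicates at 50% or more, or one of them with a favoured structure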;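 further: 0% = mean of negative control wells and 100% = mean of positive control wells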
# An asterisk follows results filed as active; · = no result given; & = joins results of further samples. This is a subset; rates above refer to the full screens.
# Start of the data: the first four entries (preview)
SMILES,MgrA-DNA mod,S aureus helic
Cc1nc(-c2cnccn2)sc1C(=O)N(Cc1ccccc1)Cc1cccs1,-1.6,·
O=C(Nc1ccc(Cl)cn1)C1Cc2ccccc2C1,-2.5,4
C=CCn1c(=O)c(C2=NS(=O)(=O)c3ccccc3N2)c(O)c2ccccc21,0.7,-2
Cc1nc(N(CCO)C2CCCCC2)c2nnn(Cc3ccccc3)c2n1,-28,11

# The whole of this part, from the first entry:
SMILES,MgrA-DNA mod,S aureus helic
Cc1nc(-c2cnccn2)sc1C(=O)N(Cc1ccccc1)Cc1cccs1,-1.6,·
O=C(Nc1ccc(Cl)cn1)C1Cc2ccccc2C1,-2.5,4
C=CCn1c(=O)c(C2=NS(=O)(=O)c3ccccc3N2)c(O)c2ccccc21,0.7,-2
Cc1nc(N(CCO)C2CCCCC2)c2nnn(Cc3ccccc3)c2n1,-28,11
O=C(c1ccccc1)C1CCN(C(=O)CSc2ccc(Cl)cc2)CC1,-0.8,·
CC(=O)N1N=C(c2ccccc2)CC1c1ccc(F)cc1 (stereo not drawn),-0.9,18
O=S(=O)(NCC(c1cccs1)S(=O)(=O)c1ccccc1)c1ccccc1 (stereo not drawn),·,8
CCN(CC)C(=S)Oc1c(C)cc(C)cc1C,-2.1,·
CSCCCN1CCOCC1,1.8,19
CCOc1ccc(OCCSc2nc3ccccc3n2CC(O)CO)cc1 (stereo not drawn),·,5
COC(=O)c1cc(S(=O)(=O)C(C)C)cs1,-1.7,·
COc1ccc(-c2cc(-c3nnc(N)o3)no2)cc1OC,-0.1,8
CCOC(=O)C1CCN(C(=O)CCc2nc3ccccc3[nH]2)CC1,0.0,15
O=c1/c(=C/c2ccc(Br)cc2)sc2nncn12,5.6,-2
COc1ccccc1NC(=O)CCCN1C(=O)/C(=C\c2ccco2)SC1=S,·,-9
CCN1C(=O)/C(=N\N2CCOCC2)c2ccccc21,·,19
CCC1CCCCN1Cc1c(O)ccc2cc(-c3nc4ccccc4[nH]3)c(=O)oc12 (stereo not drawn),21,-92
CN1C(C(=O)c2ccccc2)=C(N2CCOCC2)c2ccccc2S1(=O)=O,-0.1,9
O=C(CSc1ccc2nnc(-c3ccc(F)cc3)n2n1)c1ccccc1,·,-19
CS(=O)(=O)N1CCN(c2ncccc2C(F)(F)F)CC1,-0.9,·
Oc1ccc(C2CC3CC2C2C=CCC32)cc1 (stereo not drawn),-1.8,13
O=S(=O)(c1ccc2c(c1)CCN2)N1CCCC1,·,19
CCOc1ccc(C(=O)N(CC#N)CC#N)cc1,-0.9,12
O=C(Sc1ccc(Cl)cc1)c1cccnc1Oc1ccccc1,-7.6,·
COc1ccc(/C=C2\SC(=O)N(CCNC(=O)CC(C)(C)C)C2=O)cc1,·,0
CCSCCOC(=O)C1=C(C)N(C)C(=O)NC1c1cc(Cl)c(O)c(OC)c1 (stereo not drawn),-0.3,·
c1ccc(N(c2ccccc2)c2nc(-n3ccnc3)nc(-n3ccnc3)n2)cc1,·,17
OCC1CCCN(C(=S)Nc2ccc(Nc3ccccc3)cc2)C1 (stereo not drawn),·,-21
CCCN1Cc2cccc(C(=O)NCc3ccc(F)cc3)c2C1=O,·,20
COCC(=O)Nc1c(I)c(C(=O)NCC(O)CO)c(I)c(C(=O)N(C)CC(O)CO)c1I (stereo not drawn),2.5,·
CC(C(=O)NCCc1ccc(F)cc1)N1CCN(S(=O)(=O)c2ccc3c(c2)OCCCO3)CC1 (stereo not drawn),·,4
O=C(CN1CCOc2ccccc21)NC1CCCCCCC1,·,9
COc1cccc2c1OC1(C)NC(=O)NC2C1C(=O)Nc1cccc(Cl)c1 (stereo not drawn),2.9,11
COc1ccc(-c2cc(-c3nnc(CON4C(=O)CCC4=O)o3)c3ccccc3n2)cc1OC,·,-4
c1ccc(-n2c(-c3ccco3)nnc2N2CCOCC2)cc1,·,14
N#CC(Sc1nc(-c2cccs2)cc(-c2ccccc2)c1C(=O)O)c1ccc(Cl)cc1 (stereo not drawn),1.9,-2
CN(Cc1ccccc1)C(=O)CCc1nc(CN2CCN(C(=O)c3ccccc3)CC2)no1,·,-16
CC1Cc2ccccc2N1C(=O)CO/N=C/c1ccccc1OC(F)F (stereo not drawn),·,-1
C=CCN(CC=C)CC(O)Cn1c(C)c(C)c2ccccc21 (stereo not drawn),-0.8,7
CC(C)C12CN(C(=O)c3ccccc3)CC(C(C)C)(CN(C(=O)c3ccccc3)C1)C2=O,·,-7
CCCC(C)C1C(C#N)=C(N)OC2=C1C(=O)CC(C)(C)C2 (stereo not drawn),·,-12
CCN1Cc2cccc(C(=O)O)c2C1=O,-3.0,15
Cc1ccc(C)c(OCC(O)CNC2CCC(C)CC2)c1C (stereo not drawn),·,26
CCOc1ccc(-c2c(C)nn3c2NCN(Cc2ccc(C)cc2)C3)cc1OCC,·,5
Cc1nc(C(=O)Nc2cccc(Cl)c2Cl)c(C(F)(F)F)o1,·,-23
CCOc1ccccc1N1CCN(C(=O)c2cc3cc(OC)ccc3[nH]2)CC1,-0.4,·
O=C1N/C(=N/S(=O)(=O)c2ccccc2)S/C1=C\c1ccc2c(c1)OCO2,0.4,·
O=C(CN1CCCC1)Nc1ccccc1C(=O)c1ccccc1,·,-5
CC1CC(C)CN(C(=O)COc2ccc(-c3nnco3)cc2)C1 (stereo not drawn),·,-4
CSC1=C(C#N)C(=C(C#N)C#N)NC(C)=N1,0.0,·

# (cont.)
SMILES,MgrA-DNA mod,S aureus helic
CCOC(=O)c1n[nH]c2c1CCCC2,0.4,-3
O[C@H](CSc1nc2ccccc2o1)C(F)(F)F,-0.2,·
Cc1cc(C)nc(N/N=C/C=N/Nc2nc(C)cc(C)n2)n1,·,6
CCC(=O)N1CCc2cc(S(=O)(=O)NCCC(=O)Nc3ccc(OC(F)(F)F)cc3)ccc21,1.1,11
COc1ccc(C(=O)CNc2cccc(Cl)c2C)cc1,4.6,-39
O=C(c1ccc(Br)c(S(=O)(=O)N2CCCCC2)c1)N1CCCCC1,1.2,6
Cc1cccn2cc(-c3cccc(Br)c3)nc12,-1.7,-20
CCOC(=O)CN1CC=CCC1,1.8,-14
O=C(CCCCCN1C(=O)CCC1=O)Nc1ccccc1,0.9,-5
Nc1cccc(-n2nncc2-c2ccc(Cl)cc2)c1,2.5,9
CC(=O)NCCc1c[nH]c2ccc(OCC(O)CNC(C)C)cc12 (stereo not drawn),·,11
COc1ccc(/C=N/c2nc3ccccc3n2C)c2c(OC)cccc12,24,16
Cc1onc(-c2ccccc2)c1C(=O)Oc1ccccc1N1CCOCC1,-0.2,·
C=CCn1c(C)nnc1SC(C)C(=O)c1c(C)[nH]c2ccccc12 (stereo not drawn),·,-4
CCSc1nnc2c(n1)OC(C)(C)Nc1ccccc1-2,0.6,·
CCOC(=O)c1c(NC(=O)c2ccc(Cl)cc2Cl)sc(C(=O)Nc2ccccc2F)c1C,-0.8,·
O=C(Nc1cccc(C(F)(F)F)c1)c1csc(-c2ccncc2)n1,1.0,·
c1ccc(Nc2nc(-c3cccs3)cs2)cc1,·,-21&-8
CCc1cc(C(=O)Cc2cnc[nH]2)c(O)cc1O,·,-1
Cn1c(SCc2nccn2Cc2ccc(Cl)cc2)nnc1C(F)(F)F,-3.4,·
CC(Oc1ccc(Cl)cc1)/C(N)=N/O (stereo not drawn),-3.0,5
CCS(=O)(=O)n1nc(-c2ccco2)nc1N,4.5,-6
CCNC(=O)CN1C(=O)CSc2nc(C)cc(C)c21,1.6,0
O=C(CNc1ccc(S(=O)(=O)N2CCCC2)cc1)N1CCN(S(=O)(=O)c2ccccc2)CC1,·,-12
CCCCn1c(COc2ccccc2)nc2ccccc21,·,4
Cc1ccc(CNC(=O)c2ccc3c(Cl)c4c(nc3c2)CCCC4)o1,·,-29
CCC1CCC(N2CCN(c3ccc(Cl)cc3)CC2)CC1 (stereo not drawn),-9.0,6
Nc1nc2[nH]c(=S)[nH]c2c(=O)[nH]1,·,0
O=C(CSc1ccccc1C(=O)Nc1nccs1)NCc1ccco1,·,4
CCCc1c(C(=O)O/N=C/c2ccc(C#N)cc2)cnn1-c1ccccc1,·,22

# An excerpt from the list above, as a working copy:
SMILES,MgrA-DNA mod,S aureus helic
CC(Oc1ccc(Cl)cc1)/C(N)=N/O (stereo not drawn),-3.0,5
CCS(=O)(=O)n1nc(-c2ccco2)nc1N,4.5,-6

# The list goes on:
SMILES,MgrA-DNA mod,S aureus helic
COc1cccc(C(=O)O)c1OCC(=O)O,-1.0,·
CCN1C(=O)/C(=c2/sc3nc4ccccc4n3c2=O)c2ccccc21,-0.5,-8
COc1ccc(C2C3=C(CCCC3=O)N=C3c4ccccc4C(=O)C32)cc1 (stereo not drawn),3.3,12
Cc1occc1-c1n[nH]c(=S)n1C,·,-13
CCOC(=O)c1ccc(Nc2ncnc3[nH]ncc23)cc1,·,8
CC(=O)OCC(=O)[C@@]1(OC(C)=O)[C@@H](C)C[C@H]2[C@@H]3C[C@H](F)C4=CC(=O)C=C[C@]4(C)[C@@]3(F)[C@@H](O)C[C@@]21C,-2.0,·
CCOC(=O)c1c(CN2CCCC2)oc2ccc(OC)cc12,·,-25
COC(=O)c1sc2nc(N)c(C#N)c(-c3ccc(Cl)cc3)c2c1N,·,8
CCN(CC)S(=O)(=O)c1ccc(C(=O)NCc2ccc3c(c2)cc(C)n3C)cc1,·,-11
OCCN1CCN(c2nc(-c3ccccc3)c3cc(Br)ccc3n2)CC1,·,-17
COC(=O)CN(c1ccc(C)c(C)c1)S(C)(=O)=O,-1.1,15
CCCN(CCC)S(=O)(=O)c1ccc(C(=O)Nc2ccccc2-c2nc3ccccc3[nH]2)cc1,0.1,·
O=C(CCCOc1ccc(Cl)cc1)N1CCOCC1,·,5
O=C(Nc1ccccc1C(=O)Nc1ccc(Br)cc1)c1ccco1,·,4
CCOc1ccc(-n2c(=O)c3c4c(sc3n(CC(=O)N(CC)CC)c2=O)CCCCC4)cc1,-1.0,6
Cc1ccc(NCC(=O)N/N=C/c2ccncc2)cc1,5.8,3
Cn1cc(S(=O)(=O)NC2CCCCCCC2)c(S(=O)(=O)NC2CCCCCCC2)c1,·,5
O=C(COC(=O)c1cc2ccccc2cc1O)NC1CC1,·,4
CC1CCCCN1S(=O)(=O)c1ccc(C(=O)Nc2nc(-c3ccc4c(c3)OCO4)cs2)cc1 (stereo not drawn),·,7
COc1ccc(CCNC(=O)Cn2cnc3c(nnn3Cc3ccc(F)cc3)c2=O)cc1OC,·,-17
O=C(Cn1ncc2ccsc2c1=O)N1CCCC1,·,5
O=C(CC1CCCCC1)Nc1ccc2nc3n(c(=O)c2c1)CCCCC3,-0.1,17
O=C(COC(=O)C1CC(=O)N(Cc2ccco2)C1)c1ccc(-c2ccccc2)cc1 (stereo not drawn),·,16
O=c1cc(Nc2ccccc2)c2ccccc2o1,·,12
COC(=O)Cc1cc(=O)n(C(C)(C)C)[nH]1,·,8
OCC1OC(Oc2ccccc2)C(O)C(O)C1O (stereo not drawn),0.3,·
Cc1ccc(-c2noc(-c3cc(C(C)(C)C)nn3Cc3ccccc3)n2)cc1,-2.1,·
N#Cc1ccc(COC(=O)c2ccc3c(c2)NC(=O)C2CCCN32)cc1 (stereo not drawn),·,13
Cc1ccccc1CNC(=O)Cn1ncc2ccccc21,-1.6,18
COc1ccc2[nH]c3c(N(C)C)ncnc3c2c1,-0.7,22
COc1ccc2oc(=O)c(-c3nc4ccc(OC)cc4[nH]3)cc2c1,-2.2,-16
NC(=S)Nc1ccc(F)c(Cl)c1,·,-1
Cn1nccc1NC(=O)CC(CC(=O)O)c1ccccc1 (stereo not drawn),0.3,·
Cc1noc(C)c1S(=O)(=O)N(c1ccc(Br)cc1F)S(=O)(=O)c1c(C)noc1C,·,8
CCOc1c(Br)cc(Br)cc1/C=C1/SC(=S)NC1=O,0.2,·
CC1(C)Cc2cccc(OCC(=O)Nc3ccc(S(=O)(=O)N4CCCC4)cc3)c2O1,·,-5
CC(=O)NC1=NN(C(C)=O)C(C)(CS(=O)(=O)c2ccc(C)c(C)c2)S1 (stereo not drawn),1.9,-1
OCC1(CO)C2C3C4CC5C6C4C2C6C1C53 (stereo not drawn),·,12
O=[N+]([O-])c1ccc(-c2cc3cc(Cl)ccc3o2)cc1,3.3,·
COC(=O)c1ccc(C2N(Cc3ccccc3)CCN2Cc2ccccc2)cc1,7.8,7

# Looked up above:
# NC(=S)Nc1ccc(F)c(Cl)c1 – S aureus helic = -1
# Cn1nccc1NC(=O)CC(CC(=O)O)c1ccccc1 (stereo not drawn) – MgrA-DNA mod = 0.3
# CCOc1c(Br)cc(Br)cc1/C=C1/SC(=S)NC1=O – MgrA-DNA mod = 0.2

# Retrieved one by one from the list above:
SMILES,MgrA-DNA mod,S aureus helic
Cc1noc(C)c1S(=O)(=O)N(c1ccc(Br)cc1F)S(=O)(=O)c1c(C)noc1C,·,8
OCC1(CO)C2C3C4CC5C6C4C2C6C1C53 (stereo not drawn),·,12
Cn1nccc1NC(=O)CC(CC(=O)O)c1ccccc1 (stereo not drawn),0.3,·
CC1(C)Cc2cccc(OCC(=O)Nc3ccc(S(=O)(=O)N4CCCC4)cc3)c2O1,·,-5

# Next compounds:
SMILES,MgrA-DNA mod,S aureus helic
CCOc1ccc(NC(=O)CSc2ccnc3c2c(=O)n(C)c(=O)n3C)cc1,·,-1
CCC(=O)N1CCc2cc(S(=O)(=O)NC(C)C)ccc21,0.5,13
Cc1cc(C)c2c(/N=N/N3CCCCCC3)[nH]nc2n1,3.1,3
COc1ccc(C(F)(F)F)cc1NC(=O)c1nc2nc(C)cc(C(F)F)n2n1,·,-27
Cc1cccc(-n2nc3c(c2NC(=O)c2ccc(Br)o2)CS(=O)C3)c1C (stereo not drawn),·,21
COC(=O)c1c(N)sc2c1CCC2,2.9,-2
Cc1ccc(-n2c(O)c(C=NCCN3CCOCC3)c3ccccc3c2=O)cc1C,·,13
O=C(Nc1ccc(-c2nnc3n2CCCCC3)cc1)c1ccccc1F,0.6,8
Cc1nc2ccccn2c1C(=O)c1ccccc1,·,10
CCS(=O)(=O)N(CC(=O)Nc1sc(C)c(C)c1C(N)=O)Cc1ccc(F)cc1,0.2,11
